Mtb betalactam: beta-lactam sensitization of Mtb H37Rv, H37Rv | M. tuberculosis H37Rv growth with meropenem, percent inhibition; hits of this screen are not shown here | inhibition, % at 25 µM | actives 0.27% (n = 330,000);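 active means about 74% or more and at least 40 points above the plate without the antibiotic, then above 30% in a dose series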;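 further: growth measured after seven days incubation then overnight dye step; 0% = bacteria only wells and 100% = bacteria with antibiotic; twin plates without the antibiotic show which effects depend on it; some results filed as inactive read as strong as hits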
Active calls of the source: *. These rows are one share of the data (hit frequency here may not be typical).

molecule	Mtb betalactam
O=C(c1cccc(Br)c1)N1CCCc2ccccc21	-7
O=C(COC(=O)c1ccc(Br)o1)Nc1cccc(S(=O)(=O)N2CCCCC2)c1	6
COc1ccc(Cl)cc1NC(=O)CN(C)C(=O)CCNC(=O)c1ccccc1OC	2
Cc1cc(C2=CC(=O)C[C@H](c3ccc4c(c3)OCO4)C2)ccc1F	10
CC1CCCCC12NC(=O)N(CC(=O)OCc1ccccc1F)C2=O (stereo not drawn)	2
C/C(CC(=O)Nc1ccc2c(c1)OCCO2)=N\NC(=O)COc1ccc(C)cc1	-5
COC(=O)c1ccc(NC(=O)CCN2C(=O)NC(C)(C)C2=O)cc1	-10
Cc1c(Cl)cccc1NC(=O)CNC(=O)C1CC(=O)N(C2CCCC2)C1 (stereo not drawn)	-6
Cc1ccc(C)c(NC(=O)CN(C)C(=O)c2ccc3[nH]c4c(c3c2)CC(C)CC4)c1 (stereo not drawn)	2
COc1ccc(C)cc1-n1nnnc1SC(C)C(=O)NC1CCCC1 (stereo not drawn)	-7
CCCCn1c(N)c(N(CC(C)C)C(=O)c2cc(Cl)nc3ccccc23)c(=O)[nH]c1=O	5
CC1CCCC(NC(=O)COC(=O)c2ccc([N+](=O)[O-])s2)C1C (stereo not drawn)	96
CC(C)[C@H](NC(=O)c1ccccc1)C(=O)OCC(=O)Nc1ccc(S(=O)(=O)N2CCOCC2)cc1	-2
O=C(COc1ccccc1[N+](=O)[O-])NCC1(N2CCCCC2)CCCCC1	-10
C#CCOCCOCCOCCNc1nc(N2CCN(C(=O)C([C@@H](C)O)n3cc([C@@H](N)CCCCN)nn3)CC2)nc(N2CCN(C(=O)[C@H](CCC(=O)O)n3cc([C@@H](N)CCCCN)nn3)CC2)n1 (stereo partly drawn)	2
CC(OC(=O)c1ccc(Cl)cc1)C(=O)NCC1CCCCC1 (stereo not drawn)	-3
O=C(CSc1nnc(Nc2ccccc2F)s1)NC1CCS(=O)(=O)C1 (stereo not drawn)	-4
COc1ccc2nc(SCC(=O)NCC3CCCO3)c(C#N)cc2c1 (stereo not drawn)	2
COc1ccc(N(C)S(=O)(=O)c2cccc(C(=O)Nc3cccc(C(=O)NC4CC4)c3)c2)cc1	-6
COC(=O)C1CCN(C(=O)COC(=O)CNC(=O)c2ccc(Cl)cc2Cl)CC1	4
O=C(CN1C(=O)NC(c2ccccc2)(c2ccccc2)C1=O)NC1CCCCC1	-4
COCCN(C(=O)CCN1C(=O)C2CC=CCC2C1=O)c1c(N)n(CC(C)C)c(=O)[nH]c1=O (stereo not drawn)	-5
CC(C)=CCOc1ccc2c(C)c(CC(=O)N3C[C@H]4C[C@@H](C3)c3cccc(=O)n3C4)c(=O)oc2c1C	-5
COc1ccccc1CNC(=O)C1CCC(CNS(=O)(=O)c2cccs2)CC1 (stereo not drawn)	-8
O=C(CNC(=O)C1CC(=O)N(c2cccc3ccccc23)C1)Nc1ccccc1Br (stereo not drawn)	4

The results go on:
molecule	Mtb betalactam
COc1cccc(/C=C/C(=O)OCC(=O)c2ccc(C)c(C)c2)c1OC	1
Cc1noc(C)c1COc1ccc(C(=O)N(C)CCOc2ccccc2)cc1	-15
Cc1cccc(Nc2nnc(SCC(=O)NCC3CCCO3)s2)c1 (stereo not drawn)	3
C[C@H](CO)N1C[C@H](C)[C@@H](CN(C)C(=O)Nc2ccccc2)Oc2c(NC(=O)C3CCCCC3)cccc2C1=O	0
COCc1ccc(CN2CCC(C(=O)Nc3cccc(-c4cccc(Cl)c4)c3)CC2)o1	-8
COc1ccc(-c2ccc3c(c2)S(=O)(=O)c2cccc(C(=O)NCCOc4ccccc4)c2C3=O)cc1OC	-10
Cc1c(Br)cnn1C(C)C(=O)N1CCN(c2ccc(F)cc2)CC1 (stereo not drawn)	-2
CC(=O)Nc1ccc(NC(=O)COC(=O)c2ccc(S(=O)(=O)NCc3ccco3)cc2)cc1	-3
COc1cc(NC(=O)CSCC(=O)N(C)C2CCCCC2)cc(OC)c1	0
CC(=O)Nc1ccc(NC(=O)CC2CCCC2)cc1	13
CCCc1cc(=O)[nH]c(SCC(=O)NC(=O)NC2CCCC2)n1	-7
Cc1cc(=O)c2cc(NC(=O)c3ccccc3Cl)ccc2[nH]1	-5
CN(C)c1ccc(/C=C2\Oc3ccc(C#Cc4cccc(N)c4)cc3C2=O)cc1	4
Cc1ccc2c(c1)C(=O)C(=O)N2Cc1ccc(Br)cc1	13
COc1ccccc1C(=O)NC(CCSC)C(=O)Nc1ccc(C)c(S(=O)(=O)N2CCOCC2)c1 (stereo not drawn)	-1
O=C(COC(=O)CCS(=O)(=O)c1ccccc1)Nc1ccc(N2CCCCC2)cc1	-9
Cc1ccc(N(CCC(=O)N2CCOCC2)S(=O)(=O)c2ccccc2)cc1	-2
CN(C(=O)CSc1ccc(S(=O)(=O)N2CCCCC2)cn1)c1ccccc1	-1
CCN(CC(=O)Nc1ccc(NC(C)=O)cc1)C(=O)c1ccc(=O)n(C)n1	3
CCCN(C(=O)CSc1nnc(N)s1)c1c(N)n(Cc2ccccc2)c(=O)[nH]c1=O	1
Cc1cc(C)cc(OCc2nnc(SCC(=O)N3CCCCC3)o2)c1	-5
Cc1cc(Br)ccc1SCC(=O)OCC(=O)Nc1ccc2[nH]c(=O)[nH]c2c1	-4
CSCc1cccc(C(=O)OC(C)C(=O)Nc2c(C)n(C)n(-c3ccccc3)c2=O)c1 (stereo not drawn)	-4
CC(=O)c1ccc(OCCCC(=O)Nc2nnc(C3CC3)s2)cc1	6
CC(Oc1ccc2c(c1)oc(=O)c1ccccc12)C(=O)NC(Cc1c[nH]c2ccc(O)cc12)C(=O)O (stereo not drawn)	-1

Carrying on.
molecule	Mtb betalactam
CC(C)CCN(C(=O)C1CCCC1)c1c(N)n(Cc2ccccc2)c(=O)[nH]c1=O	-7
CCOc1ccc(C(=O)OCC(=O)N2CCOCC2)cc1OCC	-6
O=C(COc1ccc(F)cc1Br)NCC1(N2CCCCC2)CCCCC1	3
Cc1noc(C)c1S(=O)(=O)N(C)C[C@H]1Oc2ccc(NC(=O)Cc3ccccc3)cc2C(=O)N([C@H](C)CO)C[C@@H]1C	0
COc1cc(OC)cc(-c2c(C#Cc3ccsc3)c3cc(-c4cccc5[nH]ccc45)ccc3n2C)c1	-1
C=C[C@@H]1C2=CCOC(=O)C2=CO[C@H]1O[C@@H]1O[C@H](CO)[C@@H](O)[C@H](O)[C@H]1O	0
CC1CCC2(CC1)NC(=O)N(CC(=O)Nc1ccc3c(c1)OCCCO3)C2=O (stereo not drawn)	0
Cc1ccc(S(=O)(=O)N2CCCCC2)cc1NC(=O)c1ccc(Br)o1	-9
Cc1noc(C)c1S(=O)(=O)N(C)C[C@H]1Oc2ccc(NC(=O)C3CCCCC3)cc2C(=O)N([C@H](C)CO)C[C@@H]1C	-1
Cc1ccc(CN2CC(C(=O)NC3CCCC(C)C3C)CC2=O)cc1 (stereo not drawn)	-2
CCN(CC)C(=O)[C@H]1CC(CC(=O)NCCC2=CCCCC2)C(=O)N2CCc3c([nH]c4ccccc34)[C@]12C (stereo partly drawn)	-9
CC1Cc2ccccc2N1S(=O)(=O)c1cccc(C(=O)N2Cc3ccccc3CC2C(N)=O)c1 (stereo not drawn)	-1
C[C@@H]1O[C@@H](O[C@@H]2[C@@H](O)[C@H](OCCc3ccc(O)c(O)c3)O[C@H](CO)[C@H]2OC(=O)/C=C/c2ccc(O)c(O)c2)[C@H](O)[C@H](O)[C@H]1O	10
COC(=O)C1=C(C)N(Cc2ccccc2)C(=NCc2ccc3c(c2)OCO3)N[C@H]1c1ccccc1	20
CN(c1ccc(F)cc1)S(=O)(=O)c1ccc(Cl)c(C(=O)NCc2ccco2)c1	-4
COc1ccccc1OC(C)C(=O)Nc1ccc(S(=O)(=O)Nc2nccs2)cc1 (stereo not drawn)	1
O=C1C=C(c2ccc3ccccc3c2)C[C@@H](c2ccc(F)cc2)C1	56
Brc1ccccc1-c1ccccc1	0
CN(C)CCSc1nc2cc(S(=O)(=O)N3CCCCC3)ccc2o1	3
NS(=O)(=O)c1ccc(CNC(=O)Cn2nc(C(F)F)cc2C(F)F)cc1	-6
CC(=O)Nc1ccc(C(=O)OCC(=O)N2CCC(Cc3ccccc3)CC2)cc1	10
O=C(COC(=O)c1ccc(O)cc1)NC1CCCCCC1	-5
Cc1ccc(NC(=O)CN(C)C(=O)COC(=O)c2ccc(NC(=O)CC#N)cc2)cc1	-5
CCC/C(C#Cc1ccc(N(C)C)cc1)=C1/c2ccccc2C(=O)N1c1ccccc1	6
CN(C(=O)c1cc2ccccc2o1)c1c(N)n(Cc2ccccc2)c(=O)[nH]c1=O	4

Continued.
molecule	Mtb betalactam
Cc1ccc(C(=O)Nc2ccc3c(c2)OCCO3)cc1S(=O)(=O)N1CCOCC1	-10
Cc1ccc(NC(=O)CNc2ccccc2N2CCCC2=O)cc1S(=O)(=O)N1CCCCC1	8
O=c1cc(-c2ccc(O)cc2)oc2c1ccc1ccccc12	1
CC(=O)N1CCN(C(=O)c2ccccc2NS(=O)(=O)c2ccc(F)cc2)CC1	1
CC(C(=O)Nc1ccc(C#N)cc1)N(C)CC(=O)N(C)c1c(N)n(Cc2ccccc2)c(=O)[nH]c1=O (stereo not drawn)	0
O=C(OCCc1cc2ccccc2c(=O)o1)c1ccco1	1
CCOc1ccc(OCC(=O)OCC(=O)NCC2CCCO2)cc1 (stereo not drawn)	9
COC(=O)C1=C(c2ccc(F)cc2OCc2ccccc2)C[C@@H]2CC[C@H]1N2C(=O)N1CCC(O)(c2ccc(Cl)cc2)CC1	6
CCOC(=O)[C@@H](C)N(Cc1ccc(OC)cc1)S(=O)(=O)N(Cc1ccccc1)[C@H](C(=O)OC)C(C)C	-8
O=C(CSc1nc2ccccc2c(=O)n1-c1ccccc1Cl)NCC1CCCO1 (stereo not drawn)	5
O=C(NCCC1=CCCCC1)C1CCN(S(=O)(=O)c2cccc(C(F)(F)F)c2)CC1	1
CC1(CCc2ccccc2)NC(=O)N(CC(=O)Nc2ccc(OC(F)F)cc2)C1=O (stereo not drawn)	-1
Cc1cc(C(=O)COC(=O)c2ccc(O)cc2O)c(C)n1-c1ccccc1	61
COc1ccc(C(=O)N2CCC(C(=O)N3CCN(c4ccc(OC)cc4)CC3)CC2)cc1	-5
C[C@H]1CN=C(N(C)C)N1CCCCc1ccccc1	-6
Cn1c(N)c(C(=O)COC(=O)COc2ccc(Br)cc2)c(=O)n(C)c1=O	-8
O=C(Cn1cc(C(F)(F)F)cc(Cl)c1=O)NCc1ccc(Cl)cc1Cl	-2
C[C@H](OC(=O)NCc1ccc(C(F)(F)F)cc1)[C@@H]1O[C@@]2(C)CCC[C@@H]1O2	1
O=C(Cn1c(=O)oc2ccccc21)Nc1cccc(Cl)c1	-9
CSc1ccc(Cl)c(C(=O)OCC(=O)N2CCN(C(=O)c3ccco3)CC2)c1	-1
O=[N+]([O-])c1ccccc1/C=N\Nc1nccs1	6
C[C@H]1CN([C@@H](C)CO)C(=O)c2cc(NC(=O)C3CCCCC3)ccc2O[C@H]1CN(C)Cc1ccc(-c2ccccc2)cc1	37
COc1ccc(OC)c(-c2csc(NC(=O)COC(=O)C3CC3)n2)c1	22
O=C(COC(=O)c1ccc2c(c1)C(=O)N(Cc1ccco1)C2=O)NCC(F)(F)F	3
C[C@@H]1CN([C@H](C)CO)C(=O)c2cc(NS(=O)(=O)c3ccc(F)cc3)ccc2O[C@@H]1CN(C)Cc1ccc(Cl)c(Cl)c1	81

Three compounds out of the list, sorted by length of the SMILES, rising:
molecule	Mtb betalactam
COc1ccc(-c2ccc3c(c2)S(=O)(=O)c2cccc(C(=O)NCCOc4ccccc4)c2C3=O)cc1OC	-10
Cc1noc(C)c1S(=O)(=O)N(C)C[C@H]1Oc2ccc(NC(=O)Cc3ccccc3)cc2C(=O)N([C@H](C)CO)C[C@@H]1C	0
C[C@@H]1O[C@@H](O[C@@H]2[C@@H](O)[C@H](OCCc3ccc(O)c(O)c3)O[C@H](CO)[C@H]2OC(=O)/C=C/c2ccc(O)c(O)c2)[C@H](O)[C@H](O)[C@H]1O	10

Carrying on:
molecule	Mtb betalactam
O=C(Nc1cccc(S(=O)(=O)N2CCCCCC2)c1)c1cncc(Br)c1	0
O=C(CSC(=S)N1CCCC1)N(Cc1nnc(-c2ccccc2Cl)o1)C1CC1	-2
CC1Cc2ccccc2N1C(=O)COC(=O)/C=C/c1ccc(F)cc1 (stereo not drawn)	2
CCN(Cc1ccc2c(c1)OCCO2)C(=O)CSc1nc(C)nc2sc(C)c(C)c12	4
COc1cccc(N2CCN(CC(=O)Nc3ccccc3C(=O)NCCc3ccccc3)CC2)c1	98

Molecules from the list above with a CF3 group:
molecule	Mtb betalactam
O=C(NCCC1=CCCCC1)C1CCN(S(=O)(=O)c2cccc(C(F)(F)F)c2)CC1	1
O=C(Cn1cc(C(F)(F)F)cc(Cl)c1=O)NCc1ccc(Cl)cc1Cl	-2
C[C@H](OC(=O)NCc1ccc(C(F)(F)F)cc1)[C@@H]1O[C@@]2(C)CCC[C@@H]1O2	1
O=C(COC(=O)c1ccc2c(c1)C(=O)N(Cc1ccco1)C2=O)NCC(F)(F)F	3

Reprinted at random: three entries already listed, in no set order.
molecule	Mtb betalactam
O=C(CSC(=S)N1CCCC1)N(Cc1nnc(-c2ccccc2Cl)o1)C1CC1	-2
CCN(Cc1ccc2c(c1)OCCO2)C(=O)CSc1nc(C)nc2sc(C)c(C)c12	4
CC1Cc2ccccc2N1C(=O)COC(=O)/C=C/c1ccc(F)cc1 (stereo not drawn)	2

High-throughput results as filed in PubChem BioAssay.
